Compound activity deposited in PubChem by Johns Hopkins Ion Channel Center.
KCNQ2 enhance: potentiators of rat KCNQ2 potassium channel | O88943 | CHO-K1 KCNQ2, FluxOR thallium flux fluorescence; active compounds read high | B-score at 10 µM | 310,000 tested, 0.54% active | AID 2239;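 active means fluorescence ratio B-score at least 3 SD of library B-scores, with initial fluorescence B-score within 3 SD, cut at about 5.3 in these data; same plate scores as AID 2156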;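 further: B-score of peak minus minimum over baseline fluorescence ratio after K+ and Tl+ stimulus; positive B-score means potentiation of KCNQ2 with more thallium influx and brighter signal; only the inactives scoring about 0 or higher are listed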
Target sequence (O88943 whole entry, looked up): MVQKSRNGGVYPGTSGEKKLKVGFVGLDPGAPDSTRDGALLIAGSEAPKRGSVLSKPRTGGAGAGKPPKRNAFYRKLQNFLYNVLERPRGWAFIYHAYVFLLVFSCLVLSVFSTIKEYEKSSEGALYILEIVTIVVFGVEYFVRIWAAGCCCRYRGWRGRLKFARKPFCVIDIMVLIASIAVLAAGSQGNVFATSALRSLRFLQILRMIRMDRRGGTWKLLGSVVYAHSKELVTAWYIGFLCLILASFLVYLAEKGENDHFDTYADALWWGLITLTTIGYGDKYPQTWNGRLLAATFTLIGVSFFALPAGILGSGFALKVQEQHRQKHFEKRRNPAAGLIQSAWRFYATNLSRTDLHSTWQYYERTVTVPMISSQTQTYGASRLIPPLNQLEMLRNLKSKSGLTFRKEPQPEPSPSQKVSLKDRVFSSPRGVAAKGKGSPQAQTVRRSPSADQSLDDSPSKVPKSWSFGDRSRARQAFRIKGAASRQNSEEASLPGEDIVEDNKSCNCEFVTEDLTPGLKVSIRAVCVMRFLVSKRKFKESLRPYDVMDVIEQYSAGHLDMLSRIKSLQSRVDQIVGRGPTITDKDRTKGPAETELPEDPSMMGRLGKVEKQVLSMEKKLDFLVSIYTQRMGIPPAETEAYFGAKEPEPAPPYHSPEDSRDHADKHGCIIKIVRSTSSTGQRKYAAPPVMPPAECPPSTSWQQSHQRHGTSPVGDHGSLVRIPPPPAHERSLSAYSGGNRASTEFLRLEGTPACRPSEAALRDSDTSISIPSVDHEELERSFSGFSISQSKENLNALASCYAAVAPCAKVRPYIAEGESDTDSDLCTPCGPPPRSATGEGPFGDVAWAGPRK
KCNQ2 enhance baseline: second read-out of KCNQ2 enhance, no call of its own (marks repeat the call); B-score; compound at 10 µM; measured here: initial fluorescence intensity artifact check;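 brightness before thallium and not channel activity; 0 = typical well and far values either way flag optical interference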
Starred values were filed as active, the others as inactive. These rows are one share of the data (hit frequency here may not be typical).

SMILES	KCNQ2 enhance	KCNQ2 enhance baseline
Nc1nonc1-n1nnc(C(=O)N/N=C/c2cccc(Cl)c2)c1-c1cccs1	0.35	0.53
CSc1ncc(C(=O)Nc2cccc(S(N)(=O)=O)c2)n1-c1ccccc1	0.51	0.34
O=S(=O)(NN=C1CCCCCC1)c1ccccc1	1.59	-3.12
CCOC(=O)c1c(N)sc(C(=O)Nc2ccc3c(c2)OCO3)c1C	0.07	-0.27
O=C(N/N=C/c1cn(-c2ccccc2)nc1-c1cccnc1)c1ccc(F)cc1	0.6	4.78
CC(NC(=O)Cc1ccc(NC2=NC3CS(=O)(=O)CC3S2)cc1)c1ccccc1 (stereo not drawn)	0.03	-0.49
CC(C1CC2CCC1C2)n1c(COc2ccccc2F)nnc1SCC(N)=O (stereo not drawn)	0.51	-0.04
COc1ccc(CN(CC(=O)NC2CCCC2)C(=O)CCC(=O)Nc2nccs2)cc1	1.69	-0.02
CCC(C(=O)NCc1ccc(OC)cc1)n1nc(C)n2c(cc3occc32)c1=O (stereo not drawn)	1.56	-0.94
COc1ccc(N(CC(=O)NCC2CCCO2)S(=O)(=O)c2ccc(C)cc2)cc1OC (stereo not drawn)	0.07	-0.3
COc1ccc(NS(=O)(=O)c2cccc(NC(=O)C34CCC(CC3)C4)c2)cc1	1.49	-0.36
CC(=O)N1c2ccccc2-c2nc3ccccc3n2C1C (stereo not drawn)	0.81	-0.91
Fc1ccc(/C=N/Nc2nn[nH]n2)cc1	0.01	0.53
CCNC(=S)Nc1ccc(Cc2nc3ccccc3[nH]2)cc1	0.7	-1.06
C=CCC1NS(=O)(=O)OC(CCCC)C1O (stereo not drawn)	0.77	1.49

In a second layout: three of the compounds above.
Every second line gives: KCNQ2 enhance, KCNQ2 enhance baseline
COc1ccc(N(CC(=O)NCC2CCCO2)S(=O)(=O)c2ccc(C)cc2)cc1OC (stereo not drawn)
 : 0.07, -0.3
CC(NC(=O)Cc1ccc(NC2=NC3CS(=O)(=O)CC3S2)cc1)c1ccccc1 (stereo not drawn)
 : 0.03, -0.49
O=S(=O)(NN=C1CCCCCC1)c1ccccc1
 : 1.59, -3.12

New compounds follow:
SMILES	KCNQ2 enhance	KCNQ2 enhance baseline
O=C(c1ccc(Br)c(S(=O)(=O)N2CCCCC2)c1)N1CCCCC1	1.1	-0.36
Cn1c(=O)c(=O)n(C)c2cc(S(=O)(=O)CCC(=O)Nc3ccc(C(F)(F)F)cc3)ccc21	0.02	0.39
O=c1[nH]c(/C=C/c2ccccn2)nc2ccccc12	0.56	0.59
C/C(=N/NC(=O)c1ccccn1)c1ccc(O)cc1	0.81	-1.02
CC1CC(C)CN(C(=O)COc2ccc(-c3nnco3)cc2)C1 (stereo not drawn)	0.13	0.42
CCN(CC)CC(=O)N1c2ccccc2Sc2ccccc21	0.08	1.58
O=C(NNS(=O)(=O)c1ccc2ccccc2c1)NC1CCCCC1	0.28	-0.51
Cc1ccc(N(CCC#N)C(=O)COC(=O)C2CCN(S(=O)(=O)c3ccc4c(c3)OCCO4)CC2)cc1	0.86	0.28
COc1ccc(C2=NS(=O)(=O)N(C)C(C(=O)Nc3ccc(C(C)=O)cc3)=C2)cc1OC	1.74	-0.01
CC1(C)Cc2c(C#N)c(NCc3ccco3)nc(-c3ccco3)c2CO1	0.49	2.09
CCOc1ccccc1N1CCN(C(=O)c2cc3cc(OC)ccc3[nH]2)CC1	0.37	0.33
COc1ccc(N2C(=O)c3ccc(C(=O)OC(C)C)cc3C2=O)cc1	0.17	0.01
Cc1ccc(-c2nnn(CC(=O)N(c3ccccc3F)C(C(=O)NC3CCCC3)c3ccco3)n2)o1 (stereo not drawn)	0.73	0.01
COc1ccc(C2=NOC(C(=O)N3CCOCC3)C2)cc1OC (stereo not drawn)	0.64	0.22
COc1ccccc1CNC1CCCc2ccccc21 (stereo not drawn)	0.07	0
O=C(Nc1cccc(C(F)(F)F)c1)c1csc(-c2ccncc2)n1	0.48	1.25
COCCn1c(N)c(Sc2ccc(Cl)cc2)c(=O)[nH]c1=O	1.08	-1.56
CCN(CC)c1nc(-c2ccc(C(=O)NN)cc2)nc(-c2ccc(C(=O)NN)cc2)n1	1.09	-1.07
CCOC(=O)SC1=N/C(=C\c2ccc(N(C)C)cc2)C(=O)S1	1.84	0.23
NC(=O)c1nsc(C(=O)N(CC(=O)NC2CCCCC2)Cc2ccc(F)cc2)c1N	0.03	-2.53
O=c1oc(-c2ccccc2F)nc2scc(-c3ccccc3)c12	1.6	-0.02
O=C(NCc1ccccc1Cl)C1CCN(S(=O)(=O)N2CCC3(CC2)OCCO3)CC1	1.22	-0.07
CN(C)/C=C1\N=C(c2ccccc2)OC1=O	1.73	-0.36
CCSc1nnc2c(n1)OC(C)(C)Nc1ccccc1-2	0.61	-0.75
Cc1sc(-c2cccnc2)nc1OC(=O)C1CC1	0.23	0.38
CCc1cc2ccc(C)cc2nc1SCC(=O)Nc1cc(C)on1	2.18	-2.48
O=[N+]([O-])c1ccc(O)c(Nc2ncnc3ccc(Br)cc23)c1	0.85	-1.54
Cc1ccc2c(CN3CCN(C(=O)c4ccco4)CC3)cc(=O)oc2c1C	0.6	-0.35
C#CCNC(=O)C1=C[C@@H](c2ccc(C#C)cc2)[C@H](CCCO)[C@@H](OCC)O1	1.19	0.87
Nc1cccc(-n2nncc2-c2ccc(Cl)cc2)c1	1.22	0.08

Among those listed so far, two contain bromine.
SMILES	KCNQ2 enhance	KCNQ2 enhance baseline
O=C(c1ccc(Br)c(S(=O)(=O)N2CCCCC2)c1)N1CCCCC1	1.1	-0.36
O=[N+]([O-])c1ccc(O)c(Nc2ncnc3ccc(Br)cc23)c1	0.85	-1.54

The listing picks up, starting three compounds before the break.
SMILES	KCNQ2 enhance	KCNQ2 enhance baseline
Cc1ccc2c(CN3CCN(C(=O)c4ccco4)CC3)cc(=O)oc2c1C	0.6	-0.35
C#CCNC(=O)C1=C[C@@H](c2ccc(C#C)cc2)[C@H](CCCO)[C@@H](OCC)O1	1.19	0.87
Nc1cccc(-n2nncc2-c2ccc(Cl)cc2)c1	1.22	0.08
Cc1nn2c(-c3cccc(NC(=O)CSc4nc5ccccc5o4)c3)nnc2c2ccccc12	0.02	-0.89
CC(=O)Nc1ccc(OCCC[n+]2ccccc2)cc1	1.06	-2.53
CCN1CCCC1CNC(=O)c1csc2c1CCCC2 (stereo not drawn)	1.75	-1.03
COC(=O)c1cccc(OCC(O)Cn2cnc3cc(C)c(C)cc32)c1 (stereo not drawn)	0.61	0.53
O=C(CN1CCOCC1)Nc1cccc(Cl)c1Cl	1.03	-0.61
CCOCCCn1c(=S)[nH]c2cc(C(=O)NC3CCCCC3C)ccc2c1=O (stereo not drawn)	0.01	0.39
CCCCNc1nc2ccccc2nc1NS(=O)(=O)c1ccc(F)cc1	0.28	0.98
CCOc1ccc(CNC(=O)C(=O)c2cn(CC(=O)N3CCOCC3)c3ccccc23)cc1OC	2.18	-1.29
CCS(=O)(=O)n1nc(-c2ccco2)nc1N	0.17	1.61
CC(=O)NS(=O)(=O)c1ccc(NC(=O)CSc2ccccc2)cc1	1.2	-0.74
CC(Oc1ccc(Cl)cc1)/C(N)=N/O (stereo not drawn)	1.27	0.65
CC(=O)N(CCc1ccccc1C)Cc1cc2cc3c(cc2[nH]c1=O)OCO3	0.05	-1.57
COc1ccc(OC)c(N(CC(=O)Nc2ccccc2)S(C)(=O)=O)c1	1.65	0.66
COc1cccc(CN2CC(C(=O)N3CCCCCCC3)CCC2=O)c1 (stereo not drawn)	1.22	-0.18
CCCS(=O)(=O)c1c(S(=O)(=O)CCC)c2c(C(N)=O)cccn2c1C(=O)c1ccc(F)cc1	0.34	-0.1
O=C(CSc1nnc(-c2cccs2)o1)OCc1ccccc1	0.2	-0.97
CC(C)c1ccc(CN(C(=O)/C=C/c2ccco2)C2CCS(=O)(=O)C2)cc1 (stereo not drawn)	0.25	-1.14
CCc1ccc(S(=O)(=O)NCCc2csc(-c3cccnc3)n2)s1	2.72	0.48
CCOC(=O)c1sc2nc(N3CCOCC3)c3c(c2c1N)CCN(C)C3	2.15	0.42
Cc1cc2c(cc1S(=O)(=O)CCC(=O)Nc1cccc(C(F)(F)F)c1)OCC(=O)N2	0.13	1.02
CC(=O)Nc1ccc(C(=O)OCc2ccc(Br)cc2)cc1	0.58	-0.29
Cc1sc(NC(=O)CSc2nnc(C)c(=O)[nH]2)c(C#N)c1C	0.09	-0.2
COC(=O)c1nn(-c2c(C)n(C)n(-c3ccccc3)c2=O)cc1O	0.19	0.97
Cc1ccc(-c2nnc(C)c(N3CCOCC3)n2)cc1	1.08	-0.46
COc1ccc(N2CCN(C(=O)c3ccc(NS(=O)(=O)c4cccc(F)c4)cc3)CC2)cc1	0.05	-2.82
COc1ccc(CCN2CCCC(CN(C)Cc3cc(OC)c(OC)c(OC)c3)C2)cc1 (stereo not drawn)	0.93	0.09
O=C(CCCn1c(=O)[nH]c2ccsc2c1=O)N1CCN(Cc2ccc3c(c2)OCO3)CC1	0.11	0.85
COCCN(CCOC)S(=O)(=O)c1ccc(/C(O)=C(\C#N)c2nc3ccccc3[nH]2)cc1	2.69	-2.06
O=C(CCCOc1ccc(Cl)cc1)N1CCOCC1	0.03	-0.18
O=C(NCC(c1cccs1)N1CCOCC1)C1CCN(S(=O)(=O)c2ccccc2C(F)(F)F)CC1 (stereo not drawn)	3.13	-0.42
COC(C/C=C\C(=O)[C@@H](C)OCc1ccccc1)OC	0.24	-0.47
O=C(Cc1ccccc1)Nc1ccc(NC(=S)NC(=O)c2ccccc2)cc1	0.42	-1.4
CCNS(=O)(=O)c1ccc(NC(=O)Cc2ccc(F)cc2)cc1	1.21	0.01
CN(CC(=O)OCC(=O)NC(=O)c1cccn1C)S(=O)(=O)c1ccc(Cl)cc1	0.03	0.65
Cc1nnc(N(C)C(=O)c2cnccn2)s1	0.05	1.31
CCC(=O)Nc1sc(C(=O)Nc2ccccc2OC)c(C)c1C(=O)OC	0.98	-1.01
Cc1cccc(C)c1N1C(=O)CCC(C)(C)C1=O	0.41	-0.26
Cc1nnc(SCC(=O)N2CCCc3ccccc32)[nH]c1=O	0.67	-1.21
CC(=O)Nc1ccccc1C(=O)C(=O)NCCc1ccccc1	0.61	-0.04
CC(C)(C)NS(=O)(=O)c1ccc(NS(=O)(=O)Cc2ccccc2)cc1	0.56	-1.26
Cc1cc(NC(=O)NC(=O)c2cccc(OC(F)(F)C(F)F)c2)n[nH]1	1.87	-0.19
CCc1ccc(/C=C\C(=O)N2CCCC2)cc1	0.18	0.56
CSc1ccccc1NC(=O)c1noc(C)c1[N+](=O)[O-]	0.71	-0.51
O=[N+]([O-])c1ccc(O)c(P(=O)(c2ccccc2)c2ccccc2)c1	0.91	0.07
COc1ccc(NS(=O)(=O)c2ccc(NC(=S)NC(=O)/C=C/c3ccccc3)cc2)nn1	1.31	-0.1
CC(C)C(=O)Nc1nc2c(c(=O)[nH]1)CCCC2	0.15	0.05
CC(=O)NC1=NN(C(C)=O)C(C)(CS(=O)(=O)c2ccc(C)c(C)c2)S1 (stereo not drawn)	0.61	0.77
CC(C)NC(=O)C1(S(=O)(=O)c2ccccc2)CC=CC1	1.49	0.4
COCC(=O)N1CCCC(CNS(=O)(=O)c2ccc(OC)cc2)C1 (stereo not drawn)	0.71	-1.45
O=C(COC(=O)c1cc(Cl)ccc1O)c1ccc2c(c1)OCO2	2.12	-0.47
COC(=O)[C@H](C)NC(=O)Nc1ccc(OC)c(OC)c1	0.4	-3.17
O=C1/C(=C/c2cccs2)SC(=S)N1N1CCOCC1	0.67	2.12
CN(C(=O)Cn1nc(C(=O)O)c2ccccc2c1=O)c1ccccc1	0.17	-0.2
Cc1onc(-c2ccccc2)c1C(=O)N1CCCC(C(F)(F)F)C1 (stereo not drawn)	1.06	1.19
COc1ccc(CCNC(=O)c2coc(=O)c(Br)c2)cc1	0.05	-0.36
C/C(=C\c1ccccc1)CN1CCN(Cc2ccc(C)o2)C(CCO)C1 (stereo not drawn)	1.06	-0.2
Cc1cc(=O)oc(C)c1C(=O)N1CCCCC1	2.97	0.16
COc1ccc(NS(=O)(=O)Cc2ccccc2)cc1OC	0.86	0.17
CCCCCc1nnc(NC(=O)C(=O)OCC)s1	1.11	0.26
O=C(NCc1ccccn1)c1nc(-c2cccs2)no1	2.32	-0.86

Taken from above.
Cc1cc(=O)oc(C)c1C(=O)N1CCCCC1 in KCNQ2 enhance baseline → 0.16
CCCCCc1nnc(NC(=O)C(=O)OCC)s1 in KCNQ2 enhance → 1.11
COc1ccc(NS(=O)(=O)Cc2ccccc2)cc1OC in KCNQ2 enhance → 0.86
COCC(=O)N1CCCC(CNS(=O)(=O)c2ccc(OC)cc2)C1 (stereo not drawn) in KCNQ2 enhance → 0.71

Other entries
SMILES	KCNQ2 enhance	KCNQ2 enhance baseline
COc1cc(OC)c([N+](=O)[O-])cc1/C=N/NC(=O)c1ccncc1	0.94	0.14
COc1cccc(C(=O)NC2CC3CCC(C2)N3Cc2ccccc2)c1 (stereo not drawn)	0.4	0.89
COc1cc(CN2CCN(Cc3ccc(C)cc3)C(CCO)C2)ccc1O (stereo not drawn)	0.12	1
CCOC(=O)c1ccc(-c2n[nH]c(=O)c3ccccc23)cc1	0.15	-1.15
COc1ccc(/C=N/NC(=O)C2COc3ccccc3O2)cc1OC (stereo not drawn)	0.34	0.56
Cc1cccn2c(=O)nc(SCC(=O)NCc3ccccc3Cl)nc12	0.3	0.06
COC(=O)CSc1ccc2nnc(-c3ccc(F)cc3)n2n1	0.25	-0.15
COc1ccc(CCNC(=O)c2nn(C)c3c2CS(=O)(=O)c2ccccc2-3)cc1OC	1.39	0.32
CNS(=O)(=O)c1cc(NC(=O)c2cccc3cccnc23)ccc1C	0.14	0.32
Cc1ccc(-n2c(N)c(C(=O)N3CCOCC3)sc2=S)c(C)c1	0.81	0.37
COc1ccc(C2N(S(=O)(=O)c3ccc(C)cc3)CCN2S(=O)(=O)c2ccc(C)cc2)cc1	5.21	-1.56
